Yeast UUG start – alters start codon recognition fidelity in yeast. hit rate 0.13% among 350,000. activity score, % at 18.7 µM. AID 602363. S. cerevisiae UUG-firefly luciferase reporter, luminescence/redox ratio;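 active means replicate mean at a twofold rise or more, about +100% in these data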;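 further: firefly luciferase made from a UUG start codon reports start codon fidelity; reporter light over untreated wells divided by growth signal over untreated wells; some hits fall short of that in this replicate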
HIV Env fusion – blocks HIV Env-driven cell-cell fusion; HeLa-JRFL Env/CEM21 cell fusion, luciferase; inhibition, % at 12.3 µM; hit rate 1.1% among 360,000;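 active means mean replicate inhibition score of at least 50 and every replicate individually at or above 50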;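 further: 0% = plate neutral controls and 100% = maraviroc near 300 nM; one replicate is shown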
Numbers without * were called inactive; [ ] = another dose, or the depositor's remark.

SMILES | Yeast UUG start | HIV Env fusion
COc1ccc(NC(=O)N(C)C[C@H]2Oc3ccc(NC(=O)Nc4cccc5ccccc45)cc3C(=O)N([C@@H](C)CO)C[C@H]2C)cc1 | -1 | -7[16.7 µM]
C[C@H](CO)N1C[C@H](C)[C@H](CN(C)S(=O)(=O)c2ccccc2)Oc2ccc(NC(=O)C3CCCCC3)cc2C1=O | 3 | -3[16.7 µM]
C[C@@H]1CN([C@@H](C)CO)C(=O)c2cccc(NS(=O)(=O)c3ccc(Cl)cc3)c2O[C@H]1CN(C)CC1CC1 | 7 | -25[16.7 µM]
Cc1ccccc1-c1cnc2c(c1)C(=O)N([C@H](C)CO)C[C@H](C)[C@H](CN(C)C(=O)c1ccncc1)O2 | 1 | 4[16.7 µM]
CC(=O)N(C)C[C@@H]1Oc2cc(C#CCC(C)C)ccc2S(=O)(=O)N([C@@H](C)CO)C[C@@H]1C | 9 | -3[16.7 µM]
COc1ccc(NC(=O)N(C)C[C@@H]2Oc3ccc(NC(=O)C4CC4)cc3C(=O)N([C@H](C)CO)C[C@H]2C)cc1 | 2 | -6[16.7 µM]
CNC[C@H]1Oc2ccc(NS(=O)(=O)c3ccc(F)cc3)cc2C(=O)N([C@H](C)CO)C[C@@H]1C | 23 | -2[16.7 µM]
C[C@@H]1CN([C@@H](C)CO)C(=O)c2cccc(NC(=O)C3CCOCC3)c2O[C@H]1CN(C)C(=O)Nc1ccc(C(F)(F)F)cc1 | 3 | 6[16.7 µM]
COc1ccc(CN(C)C[C@@H]2OCCCC[C@H](C)Oc3ccc(N(C)C)cc3C(=O)N([C@H](C)CO)C[C@@H]2C)cc1 | 33 | 4[16.7 µM]
CCCC#Cc1cnc2c(c1)C(=O)N([C@H](C)CO)C[C@@H](C)[C@@H](CN(C)C(=O)C1CCC1)O2 | 10 | 6[16.7 µM]
Cc1noc(C)c1NC(=O)N(C)C[C@H]1OCCCC[C@H](C)Oc2ccc(N(C)C)cc2C(=O)N([C@H](C)CO)C[C@H]1C | 8 | 0[16.7 µM]
CCCNC(=O)N(C)C[C@@H]1Oc2cc(C#CCC(C)C)ccc2S(=O)(=O)N([C@H](C)CO)C[C@@H]1C | 2 | 1[16.7 µM]
Cc1noc(C)c1NC(=O)N(C)C[C@H]1Oc2ccc(NC(=O)Nc3ccc(C(F)(F)F)cc3)cc2CC(=O)N([C@H](C)CO)C[C@H]1C | 3 | -9[16.7 µM]
CCC(=O)Nc1ccc2c(c1)C(=O)N(C)[C@@H]1CC[C@@H](CC(=O)NC3Cc4ccccc4C3)O[C@H]1CO2 | 14 | -5[16.7 µM]
O=C(C[C@@H]1CC[C@@H](NC(=O)c2ccccn2)[C@@H](CO)O1)NCc1cccc(F)c1 | -1 | -15[16.7 µM]
C[C@@H]1CN([C@H](C)CO)C(=O)Cc2cc(NC(=O)Cc3cn(C)c4ccccc34)ccc2O[C@@H]1CN(C)C(=O)Nc1ccc2c(c1)OCO2 | -2 | 2[16.7 µM]
COCC(=O)Nc1ccc2c(c1)[C@@H]1C[C@@H](CC(=O)N(C)C)O[C@@H](CO)[C@@H]1O2 | -12 | 12[16.7 µM]
C[C@@H]1CCCCO[C@H](CN(C)C)[C@@H](C)CN([C@@H](C)CO)C(=O)c2cc(NS(=O)(=O)c3ccc(Cl)cc3)ccc2O1 | -9 | -14[16.7 µM]
CC(C)NC(=O)N(C)C[C@H]1Oc2ccc(NC(=O)NC3CCCCC3)cc2C(=O)N([C@H](C)CO)C[C@H]1C | 2 | 4[16.7 µM]
C[C@@H]1CCCCO[C@H](CN(C)Cc2ccc3c(c2)OCO3)[C@H](C)CN([C@@H](C)CO)C(=O)c2cc(NC(=O)c3ccncc3)ccc2O1 | 23 | -1[16.7 µM]
CC(=O)Nc1ccc2c(c1)C(=O)N(C)[C@@H]1CC[C@H](CC(=O)Nc3cn(C)nc3C)O[C@H]1CO2 | 0 | -4[16.7 µM]
C[C@@H]1CN([C@H](C)CO)C(=O)Cc2cc(NC(=O)Nc3ccc(C(F)(F)F)cc3)ccc2O[C@H]1CN(C)S(=O)(=O)c1cn(C)cn1 | -4 | 0[16.7 µM]
CCC(=O)Nc1ccc2c(c1)OC[C@H](C)N(C(=O)CN1CCOCC1)C[C@H](C)[C@@H](OC)CN(C)C2=O | -10 | 2[16.7 µM]
C[C@@H]1CN([C@H](C)CO)C(=O)CCCn2cc(nn2)CO[C@H]1CN(C)Cc1ccc(C(F)(F)F)cc1 | 7 | 9[16.7 µM]
CNC(=O)C[C@@H]1CC[C@H]2[C@@H](COc3ccc(NC(=O)C(C)C)cc3C(=O)N2C)O1 | -15 | 8[16.7 µM]

Record cards, from the list above. Screens in order: Yeast UUG start | HIV Env fusion
Profile of `Cc1noc(C)c1NC(=O)N(C)C[C@H]1Oc2ccc(NC(=O)Nc3ccc(C(F)(F)F)cc3)cc2CC(=O)N([C@H](C)CO)C[C@H]1C` = 3 | -9[16.7 µM]
Profile of `Cc1ccccc1-c1cnc2c(c1)C(=O)N([C@H](C)CO)C[C@H](C)[C@H](CN(C)C(=O)c1ccncc1)O2` = 1 | 4[16.7 µM]

Following part:
SMILES | Yeast UUG start | HIV Env fusion
O=C(CN1CCOCC1)N[C@@H]1CC[C@H](CCNC(=O)Nc2cc(F)ccc2F)O[C@@H]1CO | -3 | -26[16.7 µM]
O=C(O)C[C@@H]1C=C[C@H](NC(=O)Nc2cc(F)ccc2F)[C@@H](CO)O1 | 5 | 3[16.7 µM]
COc1ccc(-c2cnc3c(c2)C(=O)N([C@H](C)CO)C[C@H](C)[C@@H](CN(C)C(=O)Cc2ccccc2)O3)cc1 | 20 | 9[16.7 µM]
Cc1ccc(S(=O)(=O)Nc2cccc3c2O[C@@H](CN(C)C)[C@H](C)CN([C@H](C)CO)C3=O)cc1 | 6 | 7[16.7 µM]
C[C@H](CO)N1C[C@H](C)[C@H](CN(C)C(=O)NC2CCCC2)Oc2ncc(C3=CCCCC3)cc2C1=O | 6 | 1[16.7 µM]
C[C@H](CO)N1C[C@H](C)[C@H](CN(C)C(=O)Nc2cccc3ccccc23)Oc2ncccc2C1=O | -7 | -6[16.7 µM]
CN1C(=O)c2cc(NC(=O)NCc3ccccc3)ccc2OC[C@@H]2O[C@@H](CC(=O)O)CC[C@@H]21 | -9 | -6[16.7 µM]
C[C@H]1CN([C@@H](C)CO)C(=O)c2cc(NC(=O)Nc3ccc(F)cc3)ccc2O[C@H]1CN(C)C(=O)NC1CCCCC1 | -7 | -17[16.7 µM]
N#C[C@H]1[C@H](c2ccc(C#Cc3ccccc3F)cc2)[C@H](CO)N1C(=O)C1CC1 | 4 | -12[16.7 µM]
C[C@@H]1CN([C@H](C)CO)C(=O)c2cc(-c3ccncc3)cnc2O[C@@H]1CN(C)C(=O)c1ccccc1F | -2 | -35[16.7 µM]
C[C@H]1CN([C@@H](C)CO)C(=O)c2cccc(N(C)C)c2O[C@H]1CN(C)C(=O)Nc1ccc2c(c1)OCO2 | -6 | 14[16.7 µM]
Cc1ccc(S(=O)(=O)N[C@@H]2CC[C@H](CC(=O)N3CCC(Cc4ccccc4)CC3)O[C@H]2CO)cc1 | 6 | 33[16.7 µM]
N#C[C@@H]1[C@@H](c2ccc(/C=C/c3ccccc3)cc2)[C@@H](CO)N1C(=O)C1CCC1 | 4 | -10[16.7 µM]
C[C@@H]1CN([C@@H](C)CO)C(=O)c2cccc(NS(=O)(=O)c3cn(C)cn3)c2O[C@H]1CN(C)CC1CC1 | 0 | -18[16.7 µM]
CC(C)NC(=O)N(C)C[C@@H]1Oc2ccc(NC(=O)Cn3cnnn3)cc2CC(=O)N([C@@H](C)CO)C[C@H]1C | -3 | -2[16.7 µM]
O=C(O)C[C@@H]1CC[C@H](NC(=O)c2ccccc2F)[C@H](CO)O1 | 1 | -12[16.7 µM]
C[C@@H]1CN([C@@H](C)CO)C(=O)c2cccc(NS(=O)(=O)c3cccs3)c2O[C@@H]1CN(C)S(=O)(=O)c1cccs1 | 0 | -6[16.7 µM]
C[C@@H]1CN([C@@H](C)CO)C(=O)c2cc(C#CCc3ccccc3)cnc2O[C@H]1CN(C)CC1CCOCC1 | 10 | -40[16.7 µM]
C[C@H]1CN([C@@H](C)CO)C(=O)c2cc(Br)cnc2O[C@@H]1CN(C)C(=O)c1ccccc1 | 1 | 11[16.7 µM]
COc1ccc(NC(=O)Nc2ccc3c(c2)CC(=O)N([C@@H](C)CO)C[C@@H](C)[C@H](CN(C)Cc2ccc(Cl)c(Cl)c2)O3)cc1 | 1 | 9[16.7 µM]
C[C@@H]1CCCCO[C@H](CN(C)CC2CCCCC2)[C@H](C)CN([C@@H](C)CO)C(=O)c2cc(NC(=O)c3ccccc3)ccc2O1 | 30 | 7[16.7 µM]
CCC(=O)N[C@@H]1C=C[C@H](CC(=O)NCC2CCCCC2)O[C@H]1CO | 3 | -28[16.7 µM]
COc1ccc(NC(=O)N[C@@H]2CC[C@H](CCNS(=O)(=O)c3ccccc3F)O[C@H]2CO)cc1 | 5 | 19[16.7 µM]
C[C@@H]1CCCCO[C@@H](CN(C)C(=O)Nc2cccc3ccccc23)[C@H](C)CN([C@H](C)CO)C(=O)c2cc(NC(=O)CCCN(C)C)ccc2O1 | 11 | 0[16.7 µM]
Cc1ccc(S(=O)(=O)N(C)C[C@@H]2Oc3c(NC(=O)Nc4ccc(C(F)(F)F)cc4)cccc3C(=O)N([C@H](C)CO)C[C@H]2C)cc1 | -5 | -74[16.7 µM]

4 consecutive compounds out of the list so far, for reference:
SMILES | Yeast UUG start | HIV Env fusion
N#C[C@@H]1[C@@H](c2ccc(/C=C/c3ccccc3)cc2)[C@@H](CO)N1C(=O)C1CCC1 | 4 | -10[16.7 µM]
C[C@@H]1CN([C@@H](C)CO)C(=O)c2cccc(NS(=O)(=O)c3cn(C)cn3)c2O[C@H]1CN(C)CC1CC1 | 0 | -18[16.7 µM]
CC(C)NC(=O)N(C)C[C@@H]1Oc2ccc(NC(=O)Cn3cnnn3)cc2CC(=O)N([C@@H](C)CO)C[C@H]1C | -3 | -2[16.7 µM]
O=C(O)C[C@@H]1CC[C@H](NC(=O)c2ccccc2F)[C@H](CO)O1 | 1 | -12[16.7 µM]

Next records follow.
SMILES | Yeast UUG start | HIV Env fusion
C[C@@H]1CN([C@H](C)CO)S(=O)(=O)c2ccc(C#C[C@@H](C)O)cc2O[C@@H]1CN(C)C | -20 | 11[16.7 µM]
C[C@H](CO)N1C[C@H](C)[C@@H](CN(C)S(=O)(=O)c2ccc(Cl)cc2)OCCCC[C@H](C)Oc2ccc(NC(=O)C3CCCCC3)cc2C1=O | -9 | 2[16.7 µM]
COCC(=O)Nc1ccc2c(c1)C(=O)N(C)C[C@H](OC)[C@@H](C)CN(C(=O)COC)[C@H](C)CO2 | 19 | -3[16.7 µM]
O=C(C[C@H]1C=C[C@H](NC(=O)c2ccccn2)[C@@H](CO)O1)NCc1cccc(F)c1 | -9 | 9[16.7 µM]
Cc1ccc(S(=O)(=O)N[C@H]2CC[C@@H](CC(=O)NCc3ccncn3)O[C@H]2CO)cc1 | -7 | -4[16.7 µM]
C[C@H](CO)N1C[C@H](C)[C@@H](CN(C)Cc2ccc(Cl)c(Cl)c2)OCCCC[C@H](C)Oc2ccc(NS(=O)(=O)c3ccc(F)cc3)cc2C1=O | 20 | 78*[16.7 µM]
COCC#Cc1ccc2c(c1)O[C@@H](CN(C)Cc1ccc3c(c1)OCO3)[C@H](C)CN([C@@H](C)CO)S2(=O)=O | 0 | 7[16.7 µM]
CCC(=O)Nc1ccc2c(c1)OC[C@@H](C)N(Cc1ccncc1)C[C@H](C)[C@H](OC)CN(C)C2=O | -10 | 1[16.7 µM]
C[C@@H]1CCCCO[C@@H](CN(C)S(=O)(=O)c2ccccc2)[C@@H](C)CN([C@H](C)CO)C(=O)c2cc(NC(=O)CCCN(C)C)ccc2O1 | -15 | 6[16.7 µM]
Cc1noc(C)c1NC(=O)N[C@@H]1CC[C@@H](CCNC(=O)C2CCC2)O[C@@H]1CO | -13 | -2[16.7 µM]
COc1ccc(CN(C)C[C@H]2OCCCC[C@H](C)Oc3ccc(NC(=O)CCC(F)(F)F)cc3C(=O)N([C@H](C)CO)C[C@H]2C)cc1 | 5 | 0[16.7 µM]
COc1ccc(-c2ccc3c(c2)O[C@@H](CN(C)C(=O)c2ccccc2F)[C@@H](C)CN([C@H](C)CO)S3(=O)=O)cc1 | 13 | 27[16.7 µM]
C[C@H](CO)N1C[C@H](C)[C@@H](CN(C)C)OCCCC[C@H](C)Oc2ccc(NC(=O)Nc3cccc4ccccc34)cc2C1=O | 21 | 10[16.7 µM]
C[C@@H]1CN([C@@H](C)CO)S(=O)(=O)c2ccc(C3=CCCCC3)cc2O[C@@H]1CN(C)C(=O)C1CCC1 | 5 | 13[16.7 µM]
CC(C)NC(=O)N(C)C[C@@H]1Oc2ncc(-c3cccc(F)c3)cc2C(=O)N([C@H](C)CO)C[C@@H]1C | 14 | -8[16.7 µM]
C[C@H]1CN([C@@H](C)CO)S(=O)(=O)c2ccc(-c3cncnc3)cc2O[C@@H]1CN(C)C | -5 | 3[16.7 µM]
O=C(N[C@@H]1CC[C@@H](CCNS(=O)(=O)c2ccc(F)cc2)O[C@@H]1CO)C1CCC1 | -5 | 13[16.7 µM]
CCCC#Cc1ccc2c(c1)O[C@H](CN(C)C(=O)c1ccccc1F)[C@H](C)CN([C@@H](C)CO)S2(=O)=O | -23 | 21[16.7 µM]
O=C(C[C@@H]1C[C@@H]2c3cc(NC(=O)C4CCC4)ccc3O[C@@H]2[C@@H](CO)O1)NCc1ccccc1 | -6 | -1[16.7 µM]
COc1ccccc1-c1cnc2c(c1)C(=O)N([C@H](C)CO)C[C@@H](C)[C@@H](CN(C)CC1CCCC1)O2 | -1 | -8[16.7 µM]
C[C@H]1CN([C@@H](C)CO)C(=O)c2cc(/C=C/c3ccccc3)cnc2O[C@@H]1CN(C)C | -2 | -34[16.7 µM]

High-throughput results: PubChem BioAssay, Broad Institute

A portion of the library (hit frequency here may not be typical).
